Source: PubChem BioAssay
UCH37 DUB inh = inhibitors of human deubiquitinating enzyme UCH37 | inhibition, % (concentration not given with the values) | 330,000 tested, 0.33% active | purified proteasome/UCH37, Ub-AMC cleavage fluorescence | Q9Y5K5;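 active = mean of two replicates above 20%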;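 also: 0% = compound-free wells with enzyme and 100% = wells lacking proteasome; stock transfer was 100 nL into about 20 µL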
Target sequence (Q9Y5K5 whole entry, looked up): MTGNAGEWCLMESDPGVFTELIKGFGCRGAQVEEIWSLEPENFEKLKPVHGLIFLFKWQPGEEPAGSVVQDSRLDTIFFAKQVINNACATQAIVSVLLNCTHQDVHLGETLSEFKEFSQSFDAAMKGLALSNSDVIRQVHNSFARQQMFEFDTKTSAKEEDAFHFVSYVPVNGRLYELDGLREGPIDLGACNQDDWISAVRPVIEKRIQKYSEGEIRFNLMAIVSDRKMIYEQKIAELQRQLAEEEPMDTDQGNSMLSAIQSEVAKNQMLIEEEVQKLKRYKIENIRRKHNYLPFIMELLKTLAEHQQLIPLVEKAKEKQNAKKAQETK
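Material: human UCH37 enzyme supplied as purified proteasome complex / Amount: 0.15 nM proteasome as dispensed / Buffer or medium: pH 7.4 Tris-HCl (50 mM) with ovalbumin, ATP-MgCl2, DTT / Times: preincubation 30 min, reaction 25 min, room temperature / Technique: AMC fluorescence from Ub-AMC cleavage, excitation 355 nm, emission 460 nm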
RanGTP-Impb inh = disruptors of Ran-importin-beta complex formation – biochemical, FRET, CFP-Ran, YFP-importin-beta, homogeneous, primary screen; AID 2216; cell-free CFP-Ran/YFP-importin-beta FRET ratio; inhibition, % (test concentration not listed); 300,000 tested, 1.1% active;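 active = most replicates above 15%; inconclusive = exactly half above 15%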;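 also: 0% = DMSO wells and 100% = Ran loaded with GDP instead of GTP; wells of about 40 µL received 100 nL stock; the first replicate is given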
Ecoli growth = E. coli growth inhibition; Escherichia coli growth, OD600, 23 h; active compounds read low; OD600 absorbance (concentration not given with the values); 330,000 tested, 0.21% active; AID 1053175;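 active = OD600 absorbance below the run mean of sample wells minus 3.6 SD, in any replicate, cut at about 0.56 in these data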;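 also: stock transfer was 300 nL into about 60 µL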
HNF4A DNA FP = change in binding of human HNF4 alpha to DNA; HNF4a-FITC DNA binding, fluorescence polarization, 1 h; activity change, % at 10 µM; 360,000 tested, 0.3% active; AID 1224865; in the data active = activity change above about 30%, passing the limit was not always enough;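 also: controls were the assay level and a saturating level of protein; the project sought stronger binding though the title names inhibitors; some compounds called inactive have numbers as strong as hits; positive values seem to mean higher polarization but the record does not say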
Target sequence (P41235 whole entry, looked up): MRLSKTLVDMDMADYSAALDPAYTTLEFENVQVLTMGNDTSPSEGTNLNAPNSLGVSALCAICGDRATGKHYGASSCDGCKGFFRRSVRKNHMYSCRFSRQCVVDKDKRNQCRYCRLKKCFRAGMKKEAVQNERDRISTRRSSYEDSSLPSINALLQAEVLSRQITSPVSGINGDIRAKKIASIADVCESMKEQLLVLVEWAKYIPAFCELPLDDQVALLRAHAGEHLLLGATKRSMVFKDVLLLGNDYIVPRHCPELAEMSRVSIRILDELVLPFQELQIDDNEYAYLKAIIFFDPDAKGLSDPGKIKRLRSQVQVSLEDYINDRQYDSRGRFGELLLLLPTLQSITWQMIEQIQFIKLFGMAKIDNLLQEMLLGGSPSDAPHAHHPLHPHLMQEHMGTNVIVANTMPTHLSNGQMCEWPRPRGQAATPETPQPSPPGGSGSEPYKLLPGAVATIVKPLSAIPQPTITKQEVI
FGF22 binding = shifts melting point of recombinant human FGF22; Q9HCT0; recombinant FGF22 thermal shift, SYPRO orange fluorescence; percent of sucrose octasulfate shift, DMSO zero; calls only at 9.99 µM; 340,000 tested, 1.5% active;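 active = melting point raised past a set limit in the mean and every replicate; inconclusive = no clear call; three in four hits are not shown here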
Target sequence (Q9HCT0 whole entry, looked up): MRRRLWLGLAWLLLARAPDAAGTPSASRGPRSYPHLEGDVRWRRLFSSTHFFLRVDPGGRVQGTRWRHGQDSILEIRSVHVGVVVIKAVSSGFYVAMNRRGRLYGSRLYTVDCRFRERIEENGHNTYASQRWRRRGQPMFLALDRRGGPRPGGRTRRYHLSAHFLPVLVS
AF4-AF9 inh = MLL-AF4/AF9 protein interaction inhibition | P42568 | AlphaScreen, biotin-AF4 peptide binding to FLAG-AF9 | inhibition, % at 10 µM | 350,000 tested, 0.47% active | AID 651704;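 active = every replicate reaching a set inhibition limit, whatever the replicate mean, cut at about 25% in these data; inconclusive = mean inhibition reaches that limit but some replicates miss it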;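 also: 0% = plate neutral control median and 100% = total signal loss; the record names both 10 and 1 µM as test concentration; the first replicate is given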
Vif A3G = HIV-1 Vif–A3G interaction blockers – biochemical, TR-FRET, GST-Vif 1-94, biotin-A3G peptide, dose response retest, primary screen (AID 1117319); TR-FRET GST-Vif / biotin-A3G peptide binding; higher % means a stronger effect; test concentration not given here; strong numbers were not always called active; 260,000 tested, 0.57% active; inhibition, %; hits with a dose series show IC50 in µM;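 active = above the screen mean plus three standard deviations and confirmed in dose response; inconclusive = results disagree or hit not tested in dose response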;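 also: Vif residues 1-94 fused to GST binding biotinylated APOBEC3G peptide 110-148; 0% = full assay without inhibitor and 100% = GST in place of GST-Vif; retest series ran down from 100 µM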
* marks the source's active call; other numbers are inactive results; i = inactive; ? = inconclusive; . = no result given; & = joins results of further samples. This is a subset (hit frequency here may not be typical).

SMILES | UCH37 DUB inh | RanGTP-Impb inh | Ecoli growth | HNF4A DNA FP | FGF22 binding | AF4-AF9 inh | Vif A3G
COC(=O)C1(NC(=O)CNC(=O)OCc2ccccc2)CCCC1 | 0.4 | . | 0.621 | 0.7 | i | -4.5 | 3.4%
C/C(CC1(O)/C(=N/O)CCc2nonc21)=N\O (stereo unspecified) | . | 1.2 | . | -4.0 | . | . | -1.0%
Cc1ccc(-c2nnc3sc(-c4ccncc4)nn23)cc1 | 3.3 | 4.2 | 0.71 | -4.2 | . | . | -3.4%
O=C(NCc1ccccc1)c1cncc(Br)c1 | -1.5 | 0.9 | 0.645 | -1.7 | i | 1.1 | 7.3%
NC1=NC(c2ccc(Cl)cc2)n2c(nc3ccccc32)N1 (stereo unspecified) | -0.7 | -2.6 | 0.695 | -1.6 | . | . | -1.8%
CCn1c(CCc2ccccc2)nnc1SCC(N)=O | 0.2 | 0.0 | 0.667 | -3.1 | i | -5.4 | 5.0%
CCOc1ccccc1NS(=O)(=O)c1csc(C(N)=O)c1 | 5.4 | -3.8 | 0.674 | 4.4 | i | -0.9 | -3.3%
COc1ccc(C(=O)OCn2nnc3ccccc3c2=O)cc1OC | 4.6 | -2.2 | 0.716 | 0.6 | . | . | 1.0%
Cc1cc(=O)oc(C)c1C(=O)NC1CC(C)(C)NC(C)(C)C1 | 2.6 | -0.2 | 0.742 | 1.7 | . | . | .
CCCS(=O)(=O)c1cn2cccc(N)c2c1S(=O)(=O)CCC | 2.0 | 4.3 | 0.75 | -0.2 | . | . | 20.8%
COc1ccccc1CNC(=O)CCn1c(=O)oc2ccccc21 | 5.7 | 2.0 | 0.785 | 1.7 | i | -6.3 | 0.7%
COc1ccc(/C=C/c2cc(C(F)(F)F)[nH]c(=O)n2)cc1OC | -36.5 | -31.8 | 0.654 | 0.7 | . | -1.1 | 11.7%
Cc1cc(N/N=C/c2ccccc2O)nc(-c2ccccc2O)n1 | . | -5.2 | . | -0.4 | . | . | 6.8%
COc1ccc(/C=C(\C#N)C(=O)c2c(C)[nH]c3ccccc23)cc1OC | 5.2 | -2.0 | 0.708 | 1.9 | . | . | -4.2%
O=c1cc(-c2ccccc2)nc(N2CCCCC2)[nH]1 | 0.9 | -0.5 | 0.639 | -2.6 | . | . | 2.1%
Nc1ncnc(Oc2cccc3cccnc23)c1[N+](=O)[O-] | 6.1 | 1.0 | 0.654 | 3.8 | i | -2.3 | ?
COc1ccc(/C=N/n2c(COc3ccccc3)n[nH]c2=S)cc1OC | . | -0.8 | . | -3.9 | i | 1.3 | -2.5%
CCc1ccc2oc(C(=O)NC3CCS(=O)(=O)C3)cc(=O)c2c1 (stereo unspecified) | -5.1 | 1.8 | 0.686 | 2.1 | i | 1.9 | -7.4%
Cc1ccc(C)c(-n2c(C)cc(/C=N/NC(=O)c3c(C)nc4cc(C)ccn34)c2C)c1 | . | ? | . | -0.6 | . | . | 13.9%
Cc1ccc2c(c1)c1c(n2CC(O)CNC(CO)(CO)CO)CCCC1 (stereo unspecified) | 7.5 | 6.5 | 0.758 | -1.2 | i | ? | 16.1%
COC(=O)c1c(-c2ccc(F)cc2)noc1N | 3.5 | -1.5 | 0.721 | 3.8 | i | 6.6 | 1.0%
Cc1ccccc1Cn1c(NC2CCCC2)nc2c1c(=O)[nH]c(=O)n2C | 3.3 | ? | 0.737 | 0.7 | i | 1.0 | -1.3%
Cn1c(=O)oc2cc(S(=O)(=O)NCCC(=O)N3CCN(c4ccccc4F)CC3)ccc21 | 5.1 | -0.6 | 0.694 | 1.8 | i | -0.3 | .
CCOC(=O)c1c(NC(=O)CSc2nnnn2C)sc(CC)c1C | 2.8 | 6.6 | 0.622 | 0.7 | . | . | -1.9%
COCCNC(=O)CN(c1cc(C(F)(F)F)ccc1Cl)S(C)(=O)=O | 4.7 | ? | 0.707 | 0.5 | . | . | 19.1%
COc1ccc(-c2nc(C#N)c(N3CCCCCC3)o2)cc1OC | -334.6 | 0.6 | 0.685 | 1.8 | i | 27.3* | ?
O=C(c1ccccc1F)N1CCCc2ccccc21 | 1.1 | 2.3 | 0.703 | 0.6 | i | -1.7 | .
CC(C)c1cc(C(C)C)n2nc(N)nc2n1 | 0.1 | -0.3 | 0.632 | -0.4 | . | -11.0 | 30.8%
COc1c2c(cc3oc(=O)ccc13)OC(C)(C)C=C2 | -47.9 | -1.9 | 0.778 | 0.2 | i | 1.2 | .
N#Cc1cnn(-c2ncnc3sc4c(c23)CCCC4)c1N | -0.8 | 3.2 | 0.712 | 1.9 | . | . | 7.1%
CCOC(=O)/C(C#N)=C/c1cn(CCC(=O)O)nc1-c1cccc(Br)c1 | 5.5 | -2.5 | 0.664 | -4.0 | i | 6.8 | 5.4%
CC(C)Cn1c(=O)n(C)c(=O)c2[nH]cnc21 | -0.2 | 0.0 | 0.688 | -1.6 | i | -2.5 | .
CC(C)OCCCNC(=O)c1c(N)n(/N=C/c2cccs2)c2nc3ccccc3nc12 | . | ? | . | 4.5 | . | . | -0.9%
CCN(CC(=O)NCc1ccc(Cl)cc1)C(=O)/C=C/c1ccccc1 | 4.8 | -3.1 | 0.707 | 2.0 | i | -0.3 | 1.3%
CCOc1ccc(CCNC(=O)C2CCCN2C(=O)OCc2ccccc2)cc1OCC (stereo unspecified) | 2.0 | ? | 0.702 | 1.4 | i | -2.2 | -2.8%
COc1ccc(NC(=O)C(NC(=O)OC(C)(C)C)C(C)OCc2ccccc2)cc1 (stereo unspecified) | 6.2 | -1.7 | 0.727 | 4.7 | . | . | 0.9%
COc1ccc(S(=O)(=O)NC(CC(=O)NCCc2ccc(OC)c(OC)c2)C(C)C)cc1 (stereo unspecified) | -1.5 | -0.5 | 0.724 | 0.0 | i | 0.4 | .
CC(C)C(=O)Nc1cccc(C(=O)OCC(=O)c2ccc(Cl)cc2Cl)c1 | 2.0 | -0.5 | 0.76 | 0.1 | . | . | 19.8%
COC(=O)[C@]12CCCCC=C1N(Cc1ccccc1)C(=O)[C@H](CC(=O)NCC1CCCCC1)C2 | . | . | . | -3.1 | i | -2.0 | .
Cc1ccc(NC(=O)OC(C)N2CCCCC2)cc1NC(=O)OC(C)N1CCCCC1 (stereo unspecified) | 0.4 | . | 0.641 | 0.3 | i | -1.0 | -2.5%
N#C/C(=C\c1ccc(O)c(Br)c1)C(=O)N1CCCCC1 | 5.4 | 9.8 | 0.613 | -4.0 | i | 0.5 | 1.0%
O=C(O)c1ccc(Br)c(S(=O)(=O)N2CCCC2)c1 | 3.0 | 0.3 | 0.645 | 3.3 | . | . | 0.4%
Cc1ccc(-c2nn(-c3cc(Cl)ccc3[N+](=O)[O-])c(=O)c3ccccc23)cc1 | 2.8 | -2.4 | 0.777 | 0.1 | i | 9.2 | 2.7%
O=C(CCC(=O)c1cccs1)OCc1ccc([N+](=O)[O-])cc1 | 0.6 | . | 0.653 | -1.1 | i | 2.7 | -6.5%
O=C(c1ccc(-c2nnc(Nc3ccccc3)c3ccccc23)cc1)N1C[C@H]2C[C@H](C1)c1cccc(=O)n1C2 | 1.9 | 3.7 | 0.777 | 0.0 | . | . | -2.5%&-4.0%
CN(CC(=O)Nc1ccc(F)cc1)C(=O)CCc1ccccc1 | 4.9 | 0.9 | 0.694 | -3.5 | i | -4.5 | 2.8%
Cc1nnc(SCc2ccc(F)cc2)s1 | 6.6 | 1.6 | 0.704 | -3.6 | . | . | 13.1%
Cc1cccc(-n2ncc3c(Nc4ccc(F)cc4)ncnc32)c1 | -1.0 | -1.0 | 0.682 | -2.3 | i | -0.9 | .
Brc1ccccc1-n1nnc(-c2nccs2)n1 | 25.3* | 0.3 | 0.715 | -0.2 | i | -0.6 | 2.1%
CCC(=O)Nc1nnc(S(=O)(=O)N(C)Cc2ccco2)s1 | -0.1 | -0.4 | 0.642 | 0.8 | i | 1.3 | 2.9%
Fc1ccc(-c2ccc(CNCc3ccccn3)o2)cc1 | 1.6 | -0.2 | 0.606 | -2.4 | i | 7.8 | 2.8%
O=C(NCC(c1cccnc1)N1CCN(c2ccccc2)CC1)C1CCCCC1 (stereo unspecified) | 3.6 | -3.5 | 0.694 | -0.8 | . | . | 7.6%&1.5%
CCCn1nc(NS(=O)(=O)c2cccc3nonc23)c2cc3ccccc3nc21 | 6.9 | 2.6 | 0.644 | -0.3 | i | -0.8 | .
Cc1oc2ccc(O)cc2c1C(=O)c1ccccc1 | 3.4 | ? | 0.713 | -2.3 | i | 4.9 | .
COc1ccc(C(=O)OCC(=O)NC2CC2)cc1[N+](=O)[O-] | -2.5 | -2.7 | 0.684 | -1.2 | i | -3.1 | 2.1%
CC(C)CC(=O)/C(=C/c1ccc(N(C)C)cc1)n1cncn1 | 8.9 | 1.9 | 0.663 | 2.6 | i | -19.4 | -6.8%
CCCNS(=O)(=O)c1cccc(C(=O)NC2CCCc3ccccc32)c1 (stereo unspecified) | 4.5 | 2.0 | 0.724 | -1.8 | . | . | -3.9%
CCn1nc(C(C)C)cc1C(=O)N1CCCC(CO)(Cc2ccc(F)cc2F)C1 (stereo unspecified) | 4.4 | 3.1 | 0.711 | -3.2 | i | 2.6 | .
CCOc1ccc(NC(=S)NCc2cccnc2)cc1 | 1.7 | 5.0 | 0.676 | -3.8 | i | . | -0.6%
COc1ccc(Br)cc1CNC(=O)Nc1cccs1 | 5.0 | -3.8 | 0.691 | -0.7 | . | . | 5.6%
The listing continues.
SMILES | UCH37 DUB inh | RanGTP-Impb inh | Ecoli growth | HNF4A DNA FP | FGF22 binding | AF4-AF9 inh | Vif A3G
Cc1cc(C)n(-c2ccc(C(=O)N3CCC(CO)(Cc4ccccc4)CC3)cc2)n1 | 2.4 | 5.3 | 0.701 | 0.1 | i | 0.3 | 23.6%
COc1ccccc1NC(=O)CSc1nnc2ccccn12 | 0.0 | . | 0.614 | 0.1 | i | -2.0 | .
Cc1ccc(C(=O)NC2CCc3ccccc3C2=O)cc1 (stereo unspecified) | -3.9 | 2.9 | 0.69 | -0.1 | i | -1.4 | 1.1%
O=C1Nc2c(Br)cc(Br)c3cccc1c23 | -8.1 | 5.4 | 0.679 | 2.3 | i | -2.6 | -2.6%
Cc1ccc(C(=O)Nc2cccnc2)cc1C | . | . | . | -2.8 | i | 0.9 | .
CCOC(=O)C1(C)CCN1C(=O)c1cc2ccccc2s1 (stereo unspecified) | . | . | . | -1.0 | i | -7.2 | .
O=C(COc1ccc2ccccc2c1)Nc1ccncc1 | 0.9 | 7.6 | 0.693 | -5.6 | i | -0.9 | -0.8%
Cc1ccc(NC(=O)C2(C)CCN2C(C)C)cc1C (stereo unspecified) | . | . | . | -1.2 | i | 0.7 | .
CC[n+]1c(/C=C(\C)SC)sc2ccccc21 | 7.5 | -2.4 | 0.584 | -0.4 | i | -4.1 | 1.6%
Cn1c(Cn2c(=O)sc3ccccc32)nnc1SCC(=O)Nc1ccc(F)cc1 | 2.4 | 0.3 | 0.756 | -2.7 | i | -1.2 | 18.4%

Complete entries, looked up by structure. Screens in order: UCH37 DUB inh	RanGTP-Impb inh	Ecoli growth	HNF4A DNA FP	FGF22 binding	AF4-AF9 inh	Vif A3G
Profile of CCn1c(CCc2ccccc2)nnc1SCC(N)=O : 0.2	0.0	0.667	-3.1	i	-5.4	5.0%
Profile of O=C(O)c1ccc(Br)c(S(=O)(=O)N2CCCC2)c1 : 3.0	0.3	0.645	3.3	.	.	0.4%
Profile of Cn1c(Cn2c(=O)sc3ccccc32)nnc1SCC(=O)Nc1ccc(F)cc1 : 2.4	0.3	0.756	-2.7	i	-1.2	18.4%
Profile of CCCS(=O)(=O)c1cn2cccc(N)c2c1S(=O)(=O)CCC : 2.0	4.3	0.75	-0.2	.	.	20.8%
